Screening results: PubChem, National Center for Advancing Translational Sciences (NCATS)
2A Renilla = FMDV 2A StopGo reporter, Renilla signal; AID 1745857; HEK cells with a luciferase reporter of 2A StopGo recoding; Potency, µM (doses to about 57.5 µM), without a hit: at the highest dose signal change, negative = less light; actives 0.32% (n = 120,000); active means well fitted falling curve with a large enough effect; inconclusive means small, poorly fitted or top-dose-only effect; inactive means no such curve, though single readings can be large or run the other way; note: nearly all actives have a fitted effect of over 55% in size; overnight with compound
2A firefly = FMDV 2A StopGo reporter, firefly signal; AID 1745856; actives 0.23% (n = 120,000); Potency, µM (series often up to 57.5 µM), inactives show at the highest dose signal change, negative = less light; HEK cells with a luciferase reporter of 2A StopGo recoding; active = well fitted falling curve with a large enough effect; inconclusive = small, poorly fitted or top-dose-only effect; inactive = no such curve, though single readings can be large or run the other way; note: nearly all actives have a fitted effect of over 60% in size; overnight with compound
* hit, by the source's call; u = inconclusive; & = joins results of further samples; [ ] = remark or other dose. % is set by controls: 0 for no effect and ±100 for the full control effect; potency is the fitted concentration of half-maximal effect.

SMILES	2A Renilla	2A firefly
CCOc1ccccc1CNC(=O)C1CCN(c2nnc(C)c3c(C)n(-c4ccc(C)cc4)nc23)CC1	-6%	-16%
Cc1cccc(C)c1NC(=O)Cn1nnc(S(=O)(=O)c2ccccc2)c1N	6%	34%[activator]
Cc1ccc(/C(O)=C2\C(=O)C(=O)NC2c2ccccc2)cc1 (stereo unspecified)	2%	0%
Cc1cccc(NC(=O)CSc2nc3n[nH]c(C)c3c(=N)n2-c2cccc(Cl)c2)c1	45%[activator]	-18%
COCCCn1c(C)cc(C(=O)Cn2nc(C(=O)O)c3ccccc3c2=O)c1C	11%	92%[activator]
CCC(C)Nc1nc2c(c(=O)n(C)c(=O)n2C)n1C(C)C (stereo unspecified)	-3%	-3%
CCC1(C)CC(=O)OC(=O)C1	11%	u
CCOc1ccc(NC(=O)NCCN2CCN(c3cccc(C)c3C)CC2)cc1	-10%	-14%
CCCN1C(=O)c2[nH]nc(-c3cccc(OC)c3)c2C1c1ccccn1 (stereo unspecified)	-6%	12%
O=C(O)c1nccnc1C(=O)O	8%	10%
Cc1ccc(CN2CCN(C3CCN(C(=O)Nc4ccc(C)cc4Cl)CC3)C(=O)C2=O)cc1	-1%	-6%
COc1ccccc1NC1(c2nnnn2-c2cccc(C)c2)CCC(C)CC1 (stereo unspecified)	155%[activator]	2%
O=C(COc1ccccc1)Nc1nnc(SCc2cc(=O)n3cc(Cl)ccc3n2)s1	-6%	-19%
O=C(OCc1cc(Cl)c2c(c1)OCCCO2)C12CC3CC(CC(Cl)(C3)C1)C2	2%	27%
O=C(O)CSc1ccc(Cl)cc1	6%	10%
O=C(COc1ncnc2sc3c(c12)CCC3)N1CCCc2ccccc21	12%	-9%
Cc1ccc(Cn2c(CCNC(=O)C(C)C)nc3ccccc32)cc1	-2%	-5%
Cc1ccc(NCCC(=O)c2cc3ccccc3o2)cc1Cl	-15%	53%[activator]
Cc1ccc(NC(=O)c2n[nH]c(=O)c3ccccc23)cc1S(=O)(=O)N1CCCCC1	10%	-5%
CCNS(=O)(=O)c1ccc(NC(=O)c2cccc(NC(=O)C(CC)CC)c2)cc1	5%	-10%
CC(=O)Nc1c(C)nn(-c2ccccc2)c1N1CCC(C(=O)Nc2ccc(F)cc2Cl)CC1	-1%	-5%
O=C(NCCc1ccc(Cl)cc1)c1ccc2c(=O)n(-c3ccccc3)c(=O)[nH]c2c1	3%	8%
O/N=C/c1ccc(OCc2c(Cl)cccc2Cl)cc1	10%	140%[activator]
CC(=O)Nc1ccc(S(=O)(=O)N2CCC(NC(=O)CC(C)(C)C)CC2)cc1	1%	6%
COc1ccccc1OCC(=O)Nc1c(C(=O)c2ccc(F)cc2)oc2ccccc12	-4%	11%
CCCOc1ccc(C(=O)Nc2ccc3oc(-c4cccnc4)nc3c2)cc1	-9%	-5%
CCCCNC(=O)CCCN1C(=O)CCn2nc(-c3cccn3C)cc21	-16%	-15%
COc1ccc(S(=O)(=O)Oc2ccc3oc(=O)c(-c4ccc(OC)c(OC)c4)c(C)c3c2)cc1	-15%	u
OCCCNC(=S)NCCc1ccccc1	-13%	-9%
CCOCC(O)COc1ccc(NC(=O)CC[S+](C)C)cc1 (stereo unspecified)	0%	4%[11.5 µM]
Cc1c(-c2ccccc2)oc2c(C(=O)OCC(=O)NC(=O)NC3CCCC3)cccc2c1=O	1%	-5%
CC(C)c1ccc(-n2ccnc(NCc3ccccc3)c2=O)cc1	u	2%
CC(NC(=O)c1cc2cc(F)ccc2[nH]1)c1ccccc1 (stereo unspecified)	-16%	20%
N#Cc1ccccc1OCC(=O)N1CCN(c2ccccc2)CC1	-6%	-3%
Cc1ccc(-c2cc(C(=O)NC3=NCCS3)c3ccccc3n2)cc1	83%[activator]	131%[activator]
COc1ccc(C)cc1NC(=O)N(Cc1ccc2c(c1)OCO2)C1CCN(Cc2ccccc2)CC1	-10%	-23%
c1ccc(CN2CCNCC2)cc1	-4%[273 µM]	0%[44.2 µM]
NCC(O)c1ccc(O)cc1 (stereo unspecified)	6%&-6%	8%&-7%
Cc1ccc(N2CCCS2(=O)=O)cc1NS(=O)(=O)c1ccc(F)cc1C	76%[activator]	6%
COc1ccc2oc(=O)c(C(=O)NC(C)(C)CC(C)(C)C)cc2c1	-1%	7%

One compound at a time, from the list above.
Cc1c(-c2ccccc2)oc2c(C(=O)OCC(=O)NC(=O)NC3CCCC3)cccc2c1=O reads 2A Renilla: 1%; 2A firefly: -5%
OCCCNC(=S)NCCc1ccccc1 reads 2A Renilla: -13%; 2A firefly: -9%
O=C(NCCc1ccc(Cl)cc1)c1ccc2c(=O)n(-c3ccccc3)c(=O)[nH]c2c1 reads 2A Renilla: 3%; 2A firefly: 8%

Other structures follow.
SMILES	2A Renilla	2A firefly
Cc1ccc2oc(-c3ccccc3)cc(=NCCCCCC(=O)O)c2c1	19%	0%
CCCCOc1ccc(C(=O)Nc2ccc3oc(=O)ccc3c2)cc1	-4%	6%
COc1ccc(C(=O)C(C)Cl)cc1 (stereo unspecified)	12%	6%
Oc1ccc2[nH]cc(CCCCN3CC=C(c4ccccc4)CC3)c2c1	-13%	-16%[11.5 µM]
CN(CCC#N)C(=O)Cn1nc(C(=O)O)c2ccccc2c1=O	-7%	0%
Cc1cc(COc2ccc(C(=O)c3ccc(F)cc3)cc2)on1	u	u
Cc1ccc(Cn2ccnc2SCC(=O)NCc2ccc(F)cc2)cc1	6%	-10%
Cc1ccc(NC(=O)c2ccc(C)c(S(=O)(=O)N3CCCCCC3)c2)cc1	20%	76%[activator]
Cc1ccc(S(=O)(=O)Nc2nc3ccccc3nc2Nc2cccc(C(=O)O)c2)cc1	47%[activator]	27%
CCOC(=O)c1sc(NC(=O)/C=C/c2ccc(C(C)C)cc2)c(C(=O)OCC)c1C	-11%	-10%
C=CC[N+](CC)(CC)CC#Cc1cccc(C)c1	8%	8%
COc1ccccc1NC(=O)CN(c1ccc(C(C)C)cc1)S(=O)(=O)c1c(C)noc1C	14%	-14%
CCc1ccc2[nH]c(C)c(CC(=O)NCc3ccc(C)o3)c2c1	16%	7%
C=CCN(CC=C)C(=O)c1cc(-c2ccc(OCC)cc2)nc2ccccc12	33%[activator]	114%[activator]
Oc1ccc(/C=C/c2nc(-c3ccccc3O)n(-c3ccccc3)n2)c(O)c1	-8%	13%
CC1CCCCN1C(=O)CSc1nnc(-c2cccc(Cl)c2)o1 (stereo unspecified)	2%	109%[activator]
CCc1ccccc1S(=O)(=O)Cc1ccc(C(=O)NCc2ccc(Cl)cc2)o1	u	u
CCCc1cc(=O)oc2cc(C)cc(OCC(=O)N[C@H](CO)[C@H](C)CC)c12	37%[activator]	14%
O=Cc1cnccc1-c1ccccc1	5%	14%
Oc1c(C(c2ccc(Cl)cc2)N2CCC3(CC2)OCCO3)sc2nc(-c3ccco3)nn12 (stereo unspecified)	13%	-4%

Some of these compounds in order of length of the SMILES, smallest number first.
SMILES	2A Renilla	2A firefly
COc1ccc(C(=O)C(C)Cl)cc1 (stereo unspecified)	12%	6%
Oc1ccc2[nH]cc(CCCCN3CC=C(c4ccccc4)CC3)c2c1	-13%	-16%[11.5 µM]
COc1ccccc1NC(=O)CN(c1ccc(C(C)C)cc1)S(=O)(=O)c1c(C)noc1C	14%	-14%

Further results:
SMILES	2A Renilla	2A firefly
O=C(CC1CCCC1)N1CCN(C(=O)c2cc3ccccc3[nH]2)CC1	-5%	137%[activator]
CC(C(=O)NC(=O)NC1CC1)N(C)Cc1ccc(Br)cc1 (stereo unspecified)	5%	1%
O=C(NCCc1ccc(Cl)cc1)c1c2c(nc3ccccc13)C(=O)N(C1CCCCC1)C2	39%[activator]	-23%
CCOC(=O)c1sc(N)c(C#N)c1COC(=O)C1CCC1	5%	11%
COc1ccc(NS(=O)(=O)c2ccc(NC(=O)N3CCCC3)cc2)cc1	-19%	-12%
CC(=O)c1ccc(NC(=O)c2cc(-c3ccc(Cl)c(Cl)c3)on2)cc1	3%	28%
Cc1ccc(NC(=O)CSc2nc3ccc(NC(=O)c4cccc(Cl)c4)cc3s2)c(C)c1	-3%	-11%
O=C(CSc1nc2ccccc2s1)Nc1c(F)cccc1F	43%[activator]	90%[activator]
Clc1cc(CNCc2cccs2)cc2c1OCCCO2	14%	102%[activator]
Cc1cccc(N2CCN(C(=O)CS(=O)(=O)c3cccc4nsnc34)CC2)c1C	7%	84%[activator]
COc1ccc(CCNC(=O)c2cc(=O)c3cc(C)c(C)cc3o2)cc1OC	9%&1%	-7%&-15%
COc1ccc(C(=O)CCC(=O)Nc2ccccc2C)cc1	-17%	-2%
CN1/C(=C/C(=O)CSC(=S)N2CCCC2)C(C)(C)c2ccccc21	u	u
COc1ccc(-c2cc(C(=O)Oc3cccc(Br)c3)no2)cc1	-5%	25%
CCOc1ccc(C(=O)NCCc2sc3nc(-c4ccc(Cl)cc4)nn3c2C)cc1OCC	-4%	44%[activator]
CC(=O)NN1C(=O)c2ccccc2NC1c1cccnc1 (stereo unspecified)	-10%	-4%
O=c1c2cnc(N3CCc4ccccc4C3)nc2ccn1-c1cc(Cl)cc(Cl)c1	2%	65%[activator]
CC1CN(C(=O)N2CCC(C(=O)NC3CCCCCC3)CC2)c2ccccc2O1 (stereo unspecified)	-8%	14%
CCOC(=O)Cn1nc(N2CCN(c3ccc(F)cc3)CC2)ccc1=O	-4%	12%
COc1cc(NC(=O)NCCc2c(C)nn(C)c2C)cc(OC)c1OC	7%	0%
Cc1cc(F)ccc1NC(=O)CCS(=O)(=O)c1cccc2nsnc12	-2%	-3%
Nc1ccc([N+](=O)[O-])cc1Br	-5%[1.06 µM]	13%
CN(C)CCN(C(=O)c1ccco1)c1nc2c(F)cc(F)cc2s1	0%	15%
CCC(=O)N1CCc2cc(S(=O)(=O)CCC(=O)N3CCN(c4ccc(C(C)=O)cc4)CC3)ccc21	-10%	-10%
CCCOC(=O)c1ccc(Oc2coc3cc(OC(=O)c4ccc5c(c4)OCO5)ccc3c2=O)cc1	-5%	5%
CC(=O)c1cnn(-c2cc(Oc3ccc(S(=O)(=O)c4ccccc4)cc3)ncn2)c1C	10%	-4%
O=C(Nc1ccccc1)Nc1c(N2CCCC2)c2ccccc2oc1=O	37%[activator]	40%
C=CCC1([C@H](C)CCC)C(=O)NC(=O)NC1=O	-10%[114 µM]	-7%[22.9 µM]
CN(CCOC(=O)CCCc1ccccc1)C1CN(Cc2cn(Cc3ccccc3F)nn2)S(=O)(=O)C1 (stereo unspecified)	2%	10%
O=c1c2ccsc2ncn1Cc1coc(-c2ccccc2Cl)n1	0%	142%[activator]
Cc1c(C(=O)Nc2ccc(S(=O)(=O)N(C)C3CCN(C)CC3)cc2)oc2ccccc12	-21%	-11%
Cc1cccc(NC(=O)c2c(NC(=O)c3ccccc3)sc3c2CCCC3)c1	-14%	-18%
Cc1ccc2nc(Cl)c3cc(C(=O)NC4CCCCC4)sc3c2c1	1%	-11%
CCC(=O)N1CCc2cc(Br)cc(S(=O)(=O)N3CCN(c4ccccc4)CC3)c21	-5%	-1%
N#C/C(=C\c1cn(-c2ccccc2)nc1-c1cccs1)S(=O)(=O)c1ccccc1	-1%	56%
Cc1cccc(N(CC(=O)NC(C)c2ccccc2)S(=O)(=O)c2ccccc2)c1C (stereo unspecified)	66%[activator]	-10%
CCCOc1cc(C)c(C)cc1S(=O)(=O)N1CCCCC1	26%	40%[activator]
COc1ccc2c(C)c(-c3ccc(OC)c(OC)c3)c(=O)oc2c1	40%[activator]	91%[activator]
O=C1C(O)=C(O)C(=O)C(O)=C1O	-17%	-21%[11.5 µM]
Cc1cccc(CNC(=O)c2cccc(NC(=O)N3CCSc4ncccc43)c2)c1	-10%	1%

Two of the compounds above, with values under each structure:
Results follow in this order: 2A Renilla, 2A firefly
> N#C/C(=C\c1cn(-c2ccccc2)nc1-c1cccs1)S(=O)(=O)c1ccccc1
    -1%, 56%
> Cc1cccc(N(CC(=O)NC(C)c2ccccc2)S(=O)(=O)c2ccccc2)c1C (stereo unspecified)
    66%[activator], -10%

(further entries)
SMILES	2A Renilla	2A firefly
O=C(NCc1cccc(C(F)(F)F)c1)c1ccc(CN2CCCCC2)cc1	-2%	-10%
COCCn1cnc2c1c(=O)n(CC(=O)OCCOc1ccccc1)c(=O)n2Cc1ccccc1	-3%	2%
O=C(O)c1ccc2oc(C(=O)c3ccccc3)cc2c1	2%	76%[activator]
COC(=O)NNC(=S)NC(=O)c1ccccc1	-3%	0%
Fc1ccc(OCc2nnc(-c3ccc(F)cc3)o2)cc1	11%	177%[activator]
Cc1ccc(CC(=O)NCC23CC4CC(CC(C4)C2)C3)cc1	11%	21%
Cc1ccc(C(=O)Oc2cc(-c3ccc4c(c3)OCO4)cc(=O)c3c(C)oc(C)c23)cc1	12%	5%
CCC1CN(C(=O)N2CCC(C(=O)N(C)Cc3ccccc3)CC2)c2ccccc2O1 (stereo unspecified)	9%	-22%
COc1cc2ccccc2cc1C(=O)N1CCN(c2nc3c(C)cc(C)cc3s2)CC1	-12%	-5%
CCCCn1c(=O)[nH]c(=O)c2c1nc(CCc1ccccc1)c(=O)n2Cc1ccccc1	-7%	-9%
COc1ccc(CNCCSc2nnnn2-c2ccccc2)cc1	-22%	-3%
CC(C)NC(=O)C1CCCN(c2ncnc3onc(-c4ccc(F)cc4)c23)C1 (stereo unspecified)	-9%	-5%
COc1ccc(S(=O)(=O)c2c(Nc3cccc(Cl)c3)sc(C(=O)c3ccccc3)c2N)cc1	82%[activator]	-8%
Cc1ccc(CN(C(=O)COc2ccc(Br)cc2)c2ccccn2)o1	34%[activator]	102%[activator]
CN(C)C(=O)c1ccc(NC(=O)c2c[nH]c3ccccc23)cc1	-2%	163%[activator]
CCc1ccc(CNC(=O)c2cnc3sc(N4CCOCC4)nn3c2=O)cc1	-10%	-15%

This is a subset; the hit share may differ from the screen's.
